RE007 growth inh – less growth of the S. pombe RE007 Vpr strain. hit rate 0.21% among 360,000. S. pombe RE007 Vpr strain, BacTiter-Glo ATP luminescence, 24 h; control for the full effect not named in the record. Potency, µM (series often up to 92.2 µM), inactives show at the top dose activity change, negative = less growth; active = well fitted falling curve with a large enough effect; inconclusive = small, poorly fitted or top-dose-only effect; inactive = no such curve, though single readings can be large or run the other way;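 also: % is scaled to controls: 0 for no effect and ±100 for the full control effect; nearly all actives have a fitted effect of over 50% in size; the assay follows cell death caused by Vpr and the record does not say whether a fall means rescue or toxicity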
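Fission yeast strain RE007, carrying one chromosomally integrated HIV-1 vpr copy, was seeded at OD 0.01 in PMG+AL medium with 23 nL pinned compound. After 24 h at 30 °C and 99% humidity, viability was read by BacTiter-Glo luminescence.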
StopGo reporter – FMDV 2A StopGo reporter, luciferase signal. human cells with a luciferase reporter of 2A StopGo recoding; control for the full effect not named in the record. Potency, µM (doses to about 57.9 µM), inactives show at the top dose signal change, negative = less light. hit rate 1.2% among 410,000; active = well fitted falling curve with a large enough effect; inconclusive = small, poorly fitted or top-dose-only effect; inactive = no such curve, though single readings can be large or run the other way; tested in HEK293T cells; also: % is scaled to controls: 0 for no effect and ±100 for the full control effect; nearly all actives have a fitted effect of over 45% in size; luciferase light after 4 h
MARV entry inh – inhibitors of Marburg virus binding or cell entry. hit rate 1.8% among 300,000. Potency, µM (highest dose often 37.8 µM), inactives show at the highest dose activity change, negative = inhibition, actives largely listed as inhibitors. Marburg virus pseudotyped entry inhibition, cell reporter; control for the full effect not named in the record; about a third of the inactives were read at about 46 µM; active = well fitted inhibition curve with a large enough effect; inconclusive = small, poorly fitted or top-dose-only effect, or effect the other way; inactive = flat fitted curve, though single readings scatter; tested in HEK293 cells; about a fifth of its hits are not listed in these tables; also: % is scaled to controls: 0 for no effect and ±100 for the full control effect; luciferase read-out
Cruzain Triton – cruzain (T. cruzi) inhibition with detergent. P25779. purified cruzain, Z-FR-AMC fluorescence, 0.01% Triton. Potency, µM, for the others: max response, negative = inhibition, most hits filed as inhibitors. hit rate 0.43% among 200,000; active = well fitted curve in the direction sought with a large enough effect; inconclusive = small, poorly fitted or top-dose-only effect, or another doubt; inactive = no such curve, though single readings can be large; an effect the other way counts as inactive or inconclusive;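 also: plate controls were neutral wells for no effect and buffer without enzyme for full effect; nearly all actives have a fitted effect of over 40% in size; top concentration of the series not given in the record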
Target sequence (P25779 123-467 limits assumed): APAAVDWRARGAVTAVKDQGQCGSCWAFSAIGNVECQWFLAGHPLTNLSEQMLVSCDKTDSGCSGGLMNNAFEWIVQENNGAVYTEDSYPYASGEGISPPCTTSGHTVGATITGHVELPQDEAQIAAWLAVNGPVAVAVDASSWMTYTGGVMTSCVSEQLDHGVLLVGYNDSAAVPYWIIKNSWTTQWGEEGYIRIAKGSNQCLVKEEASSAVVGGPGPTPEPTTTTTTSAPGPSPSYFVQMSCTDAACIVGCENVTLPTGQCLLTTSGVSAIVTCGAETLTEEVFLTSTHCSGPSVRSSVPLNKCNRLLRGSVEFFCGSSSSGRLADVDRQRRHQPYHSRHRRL
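Read-out: AMC fluorescence (360 nm excitation, 450 nm emission), four reads over 2 min, first-to-third difference used. Conditions: cruzain 1.5 nM, Z-FR-AMC 2 uM, pH 5.5 acetate, 5 mM DTT, 0.01% Triton X-100.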
SARS PLpro yeast – blocks SARS-CoV papain-like protease in a yeast assay; S. cerevisiae expressing SARS-CoV PLpro, growth rescue; control for the full effect not named in the record; Potency, µM (doses to about 32.9 µM), for the others: at the highest dose activity, positive = growth rescue; hit rate 0.19% among 330,000; AID 485353; also: 0% is about no effect; nearly all actives have a fitted effect of over 55% in size; growth read by luminescence after 48 h
Lassa entry inh – Lassa virus entry inhibition. Lassa virus pseudotype entry inhibition, cell reporter; control for the full effect not named in the record. Potency, µM (titrated, usually from 37.9 µM), without a hit: top-dose activity change, negative = inhibition, usual class: inhibitors. hit rate 1.2% among 300,000. AID 540256; active means well fitted inhibition curve with a large enough effect; inconclusive means small, poorly fitted or top-dose-only effect, or effect the other way; inactive means flat fitted curve, though single readings scatter; tested in HEK293 cells; also: % is scaled to controls: 0 for no effect and ±100 for the full control effect; nearly all actives have a fitted effect of over 50% in size; luciferase read-out
Cruzain inh noDet – blocks cruzain activity in detergent-free assay. purified cruzain, Z-FR-AMC fluorescence, no detergent. Potency, µM, without a hit: max response, negative = inhibition, most hits filed as inhibitors. hit rate 2.3% among 200,000. AID 1476; active = well fitted curve in the direction sought with a large enough effect; inconclusive = small, poorly fitted or top-dose-only effect, or another doubt; inactive = no such curve, though single readings can be large; an effect the other way counts as inactive or inconclusive;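 also: plate controls were enzyme without inhibitor for no effect and buffer without enzyme for full effect; nearly all actives have a fitted effect of over 40% in size; top concentration of the series not given in the record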
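Purified cruzain at 1.5 nM, pre-incubated 15 min with compound at room temperature in 100 mM sodium acetate pH 5.5, 5 mM DTT, 0.00005% Triton X-100. Reaction started with 2 uM Z-FR-AMC; AMC fluorescence increase over 60 s gives rate.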
NS1 inh – inhibitors of influenza NS1 protein function; Potency, µM (highest dose often 46.1 µM), for the others: top-dose activity, positive = more growth; hit rate 0.4% among 270,000; S. cerevisiae slowed by influenza A NS1, growth recovery by OD600; also: actives are rising curves; nearly all actives have a fitted effect of over 50% in size
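S. cerevisiae expressing influenza A NS1, grown in glucose, washed, then diluted 1:100 into pH 6.0 -URA galactose medium with 23 nl compound. Growth recovery read as OD600; NS1-free strain serves as control.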
* hit, by the source's call; ? = inconclusive; / = no result given; & = joins results of further samples; [ ] = dose if it differs, or a comment. Unless noted, calls follow the shape of the dose curve; as a rule, active means well fitted rising curve with a large enough effect; inconclusive means small, poorly fitted or top-dose-only effect; inactive means no such curve, though single readings can be large or run the other way. Potency is read from the fitted curve at half-maximal effect.

Compound	RE007 growth inh	StopGo reporter	MARV entry inh	Cruzain Triton	SARS PLpro yeast	Lassa entry inh	Cruzain inh noDet	NS1 inh
Cc1cccc(NC(=O)CSCC(=O)Nc2ccc(S(=O)(=O)N3CCCCC3)cc2)c1	10%	15%	?	/	4%	?	/	/
O=C(Oc1ccccc1)N1CCN(C(=O)c2ccco2)CC1	-14%	9%	?	/	-2%	?	/	-2%
COc1cc(C(=O)OCC(=O)N2CCC(Cc3ccccc3)CC2)cc(OC)c1OC	2%	0%	-7%	/	/	?	/	/
CCCN1Cc2cccc(C(=O)Nc3cccc(C(=O)OCC)c3)c2C1=O	/	0%	0%[46.1 µM]	-2.6%	/	0%[46.1 µM]	-5%	/
O=C(O)COc1ccc(S(=O)(=O)NCCc2ccccc2)cc1	-11%	13%	-3%	2.0%	?	/	8%	2%
O=c1[nH]c2ccc(S(=O)(=O)N3CCCCC3)cc2[nH]c1=O	-1%	0%	25%	-2.7%	-21%	7%	-15%	4%
CO/N=C/CC(=O)c1cnc(-c2ccc(Cl)cc2)s1	5%	7%	2%[46.1 µM]	/	-4%	?	/	/
CCC1CO/C(=C(\C(Cl)=C(Cl)Cl)[N+](=O)[O-])N1Cc1ccc(Cl)nc1 (configuration not stated)	5%	-6%	/	/	1%	/	/	3%
Fc1ccccc1N1CCN(Cc2c(F)cccc2F)CC1	-18%	5%	-4%	1.7%	-1%	2%	-9%	-2%[9.22 µM]
COC(=O)C1CC(O)CN1C(=O)c1ccco1 (configuration not stated)	-16%	6%	-3%	2.2%	4%	4%	-10%	10%
CCCC(C)NC(=O)c1c2c(nc3ccccc13)CCC2 (configuration not stated)	5%	-18%	?	/	-4%	?	/	/
CCn1c(SCC(=O)Nc2nc3c(s2)CCCC3)nc2c1c(=O)n(C)c(=O)n2C	/	/	/	4.3%	6%	/	-6%	-1%
O=C(CN1CCN(c2ccccc2)CC1)Nc1ccc2c(c1)OCCO2	-21%	7%	-7%	/	-1%	?	/	/
CCOC(=O)c1ccc(NC(=O)c2c(O)[nH]c(=O)[nH]c2=O)cc1	5%	-2%	-7%&-7%	-1.2%	3%	10%	-20%	15%
CC(NC(=O)CCNS(=O)(=O)c1cccc2nsnc12)c1ccccc1 (configuration not stated)	-4%	9%&-5%	18%&-9%[46.1 µM]	-2.3%	2%	4%	-1%	-3%
CN(Cc1ccccc1)C(=O)CSc1nc2cc(C(=O)N3CCC(C(N)=O)CC3)ccc2c(=O)n1-c1ccccc1	-1%	-22%	/	/	0%	/	/	-2%
CN(c1ccccc1)S(=O)(=O)c1ccc(Cl)c(C(=O)OCC(=O)N2CCOCC2)c1	-19%	?	-1%[46.1 µM]	/	0%	5%	/	/
Cc1cc(-c2ccc(S(=O)(=O)N3CCN(c4ccccc4F)CC3)s2)on1	2%	-30%	/	/	1%	/	/	-6%
CCN(CC)CCC(O)(c1ccc2c(c1)OCO2)c1cc(OC)c(OC)c(OC)c1 (configuration not stated)	-23%	7%	?	/	/	24%[46.1 µM]	/	/
CC1(C)CC(=O)C(C(c2ccncc2)C2C(=O)CC(C)(C)CC2=O)C(=O)C1	2%	-23%	-19%&-19%	2.4%	3%	19%	-1%	10%
O=C(O)c1ccccc1Nc1cc(Cl)c2nonc2c1[N+](=O)[O-]	0%	?	7%[46.1 µM]	/	7%	13%[46.1 µM]	/	14%
COc1ccc(OC)c2c1sc(=NC(=O)C(C)C)n2C	-13%	0%	/	-0.5%	4%	/	22%	-16%
Cc1noc(C)c1Cc1ccc(O)cc1	12%	18%	?	0.5%	0%	-9%	-1%	-1%
Cc1ccccc1-c1noc(C23CC4CC(CC(C4)C2)C3)n1	4%[3.69 µM]	5%	-3%	-1.5%	0%	-6%	-4%	9%
N#Cc1ccc(NC(=O)CN2CCCC2)cc1Cl	1%	5%	2%[46.1 µM]	/	2%	-4%	/	8%
CCOC(=O)C(NC(=O)CC)(Nc1ccc(S(N)(=O)=O)cc1)C(F)(F)F (configuration not stated)	8%	-10%	/	/	0%	/	/	-4%
COc1cccc(NC(=O)C2CCN(c3cc(C)nc4c(-c5ccc(Cl)cc5)c(C)nn34)CC2)c1	/	4%	14%[46.1 µM]	1.9%	/	13%[46.1 µM]	-1%	/
C/C(=N\NS(=O)(=O)c1ccc(Cl)cc1)c1ccc(NC(=O)c2ccco2)cc1	-14%	150%[activator]	?	-2.7%	-32%	?	-7%	-11%
O=C(/C=C/c1ccccc1)NCCOc1ccccc1	11%	54%[activator]	11%&11%	-4.5%	1%	17%	-10%	-11%
CS(=O)(=O)Nc1cccc(C2=NN(S(C)(=O)=O)C(c3ccc4c(c3)OCO4)C2)c1 (configuration not stated)	7%	23%	-6%	-4.7%	1%	?	5%	-14%

By substructure: those above containing a furan ring, fused or not.
Compound	RE007 growth inh	StopGo reporter	MARV entry inh	Cruzain Triton	SARS PLpro yeast	Lassa entry inh	Cruzain inh noDet	NS1 inh
O=C(Oc1ccccc1)N1CCN(C(=O)c2ccco2)CC1	-14%	9%	?	/	-2%	?	/	-2%
COC(=O)C1CC(O)CN1C(=O)c1ccco1 (configuration not stated)	-16%	6%	-3%	2.2%	4%	4%	-10%	10%
C/C(=N\NS(=O)(=O)c1ccc(Cl)cc1)c1ccc(NC(=O)c2ccco2)cc1	-14%	150%[activator]	?	-2.7%	-32%	?	-7%	-11%

Next section
Compound	RE007 growth inh	StopGo reporter	MARV entry inh	Cruzain Triton	SARS PLpro yeast	Lassa entry inh	Cruzain inh noDet	NS1 inh
O=C1NC(=S)N/C1=C/c1cccn1-c1ccc([N+](=O)[O-])cc1	37%	-9%	0%[46.1 µM]	/	1%	2%[46.1 µM]	/	/
O=C(CN1C(=O)COc2ccccc21)NCCCN1CCN(Cc2ccccc2)CC1	-11%	/	?	4.2%	?	3%	-3%	-1%
Cc1ccc(S(=O)(=O)N2CCCCC2CCNC(=O)C(=O)NCC2CCCO2)cc1 (configuration not stated)	-4%	-19%	-3%	/	5%	8%	/	/
COc1cc(NC(=O)COC(=O)C2CC2)c(C)cc1[N+](=O)[O-]	-23%	-15%	26%	-5.1%	-4%	22%	-2%	1%
COc1cccc(CNC(=O)CN2C(=O)c3ccccc3S2(=O)=O)c1	8%	17%	6%[46.1 µM]	/	5%	13%	/	/
O=C(NC1CCCC1)c1ccc(COCC(F)(F)F)o1	0%	/	22%	3.4%	1%	10%	6%	-2%
Cc1cnc(C(=O)OCC(=O)NC(=O)c2ccccc2)cn1	-6%	-13%	21%	/	0%	27%	/	/
COc1cccc(/C=C2\SC(N3CCC(C)CC3)=NC2=O)c1OC	5%	45%[activator]	/	/	0%	/	/	-9%
O=C(C1CCC(CNS(=O)(=O)c2cccs2)CC1)N1CCCCC1 (configuration not stated)	-7%	-16%	-2%	-2.8%	-7%	0%	-4%	-3%
CN1C(=O)C(=Cc2sc(=O)n(-c3ccccc3)c2N(C)C)C(=O)N(C)C1=O	-10%	16µM*	?	/	0%	-63%	/	5%
CC(NC(=O)CCN1C(=O)c2ccccc2C1=O)c1ccc2c(c1)CCCC2 (configuration not stated)	/	-6%	?	0.4%	-4%	1%	8%	-21%
CC(CCc1ccccc1)NC(=O)CCNC(=O)Cn1ccc2ccccc2c1=O (configuration not stated)	-21%	19%	8%[46.1 µM]	/	3%	26%[46.1 µM]	/	1%
COc1ccc(C2c3[nH]c4ccccc4c3C[C@H]3C(=O)N(CCCO)CC(=O)N23)cc1OC (some centres not stated)	-4%	-2%	2%	/	2%	?	/	-1%
CCNC(=O)C(CCSC)NS(=O)(=O)c1ccc(C)cc1 (configuration not stated)	-4%	5%	/	/	-2%	/	/	-2%
COc1ccccc1NC(=O)c1nnn(CC(=O)Nc2cc(C)cc(C)c2)c1N	8%	-13%	/	/	1%	/	/	-1%
COc1ccc(-c2nc3ccccc3c(=O)n2CCOc2ccc(C)cc2C)cc1	-14%	5%	/	-0.4%	-15%	/	?	7%
O=C(CSc1nnc(-c2cccc(F)c2)o1)NC1CCCC1	-6%	11%	-5%[46.1 µM]	/	6%	3%[46.1 µM]	/	-2%
Cc1cc(/C=C2\C(=O)NC(=O)N(c3ccc(F)cc3)C2=O)c(C)n1-c1cccc(C(=O)O)c1	3%	6%	18%[46.1 µM]	/	1%	-9%[46.1 µM]	/	5%
Cc1ccc(NC(=O)CCC(=O)NNC(=O)Nc2cccc(Cl)c2)c(C)c1	-2%	-24%	-7%	/	-5%	?	/	5%
O=C1c2ccccc2C(O)(c2ccccc2)N1c1ccc([N+](=O)[O-])cc1Cl (configuration not stated)	32%	?	-29%	/	/	-5%	/	/
CS(=O)(=O)c1cccc(-c2nnc(NC(=O)c3ccc(S(=O)(=O)N4CCCC4)cc3)o2)c1	6%	-8%	3%&3%	/	0%	-8%	/	/
COc1cccc2c1Oc1nc(-c3ccccc3)nc(SCC(=O)Nc3ccccc3)c1C2	/	-6%	-2%[46.1 µM]	-0.3%	/	-1%[46.1 µM]	-2%	/
O=S(=O)(c1cc(Cl)cc(Cl)c1)N1CCCC1c1nc2ccccc2s1 (configuration not stated)	6%	0%	4%	-4.9%	13%	1%	11%	-5%
COc1cc2c(cc1OC)CN(C(=O)c1ccc(S(=O)(=O)N(C)c3ccccc3)cc1)CC2	-4%	14%	?	/	-7%	?	/	-3%
Cc1cccc(-c2noc(-c3c(C)noc3C)n2)c1	2%	37%[activator]	14%[46.1 µM]	/	1%	10%	/	5%
O=c1c(Cl)c(N2CCN(c3ccc(F)cc3)CC2)cnn1C12CC3CC(CC(C3)C1)C2	5%	?	/	-5.7%	10%	-45%	2%	14%

High-throughput results deposited in PubChem by National Center for Advancing Translational Sciences (NCATS).
